Source: PubChem (NMMLSC)
Autofluor counter: compound fluorescence in toxin protease inhibitor counterscreen; AID 624483; fluorescence intensity (test concentration not listed); 360,000 tested, 3.1% active; compound autofluorescence counterscreen, microsphere flow cytometry; hits give high values;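 active = at least 3 SD above the mean of all compounds, about 16000 in these data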;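 note: 100 nL of 1 mM stock went into each well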
Starred values were filed as active, the others as inactive. Only part of the results is shown; the hit share may differ from the screen's.

no.	compound	Autofluor counter
1	CCC(=O)[C@@H](C)[C@@H](OC(C)=O)[C@H](C)C[C@@H](C)[C@H]1OC(=O)C[C@@]2(O)CC=C(C)C(O2)C(C)=CCCC[C@H](O[C@H]2C[C@@H](OC(N)=O)[C@H](OC(C)=O)[C@@H](C)O2)C=C[C@H](C)C[C@H]1C	5982
2	CC(C)OC(=O)N(C)C[C@H]1OCc2cn(nn2)CCCC(=O)N([C@H](C)CO)C[C@@H]1C	3784
3	COc1ccc(C#Cc2ccc3c(c2)O[C@H](CN(C)S(=O)(=O)c2ccccc2F)[C@H](C)CN([C@H](C)CO)S3(=O)=O)cc1	4323
4	CC(C)CNC(=O)C1(C)CCCN1C(=O)c1ccncc1 (stereo unspecified)	3692
5	O=C(NCc1ccco1)c1ccc2sc([C@H]3C[C@H](O)[C@@H](CO)O3)nc2c1	2800
6	CC(C)(C)n1nnnc1C(c1ccccc1)N1CCN(c2ccc(C(F)(F)F)cn2)CC1 (stereo unspecified)	5781
7	C#CCCC[C@@H]1OC(=O)CNC(=O)C([C@@H](C)CC)NC(=O)[C@@H]2CCCN2C(=O)C([C@@H](C)CC)OC(=O)[C@H](Cc2ccccc2)N(C)C(=O)[C@H](C(C)C)NC(=O)C1(C)C (stereo partly specified)	3818
8	COc1ccccc1N1CCN(c2ccc3c(c2)S(=O)(=O)c2cccc(C(=O)NCc4cccc(F)c4)c2C3=O)CC1	3870
9	OC[C@@H]1CN(CCN2CCOCC2)C[C@H](n2cnc3c(Nc4ccccc4)ncnc32)O1	2931
10	O=C(O)C1C2CCC1C(O)C2 (stereo unspecified)	2853
11	Fc1cccc(Cc2c(-c3ccc(Cl)cc3)nc3ccc(Br)cn23)c1	6431
12	C[C@H]1CN([C@@H](C)CO)S(=O)(=O)c2ccc(-c3ccccc3)cc2O[C@H]1CN(C)C(=O)C1CCC1	3584
13	CCN(CCc1ccccc1)c1ccc2c(c1)C1CC2CCN1Cc1ccccc1 (stereo unspecified)	3910
14	CCCCN1C(=O)C(CC(=O)NCC2CCCCC2)CC(C(=O)N(C(C)C)C(C)C)=C1C (stereo unspecified)	3450
15	Cc1ccsc1CNC(=O)C1(C)CCN1C(C)C (stereo unspecified)	4190
16	COc1ccc(C(C)=O)cc1CN1C(=O)C(Cc2ccccc2)ON=C1c1ncccc1C (stereo unspecified)	5746
17	COc1ccc(-c2noc(CCC(=O)Nc3cccc(C(=O)NC4CC4)c3)n2)cc1OC	2969
18	COCCNC(=O)c1ccc(N2CC3CC(C2)c2cccc(=O)n2C3)c(NC(=O)c2ccccc2Cl)c1 (stereo unspecified)	3732
19	C[C@@H]1CN([C@@H](C)CO)C(=O)c2cc(C#Cc3cccc(F)c3)cnc2O[C@@H]1CN(C)CC1CCOCC1	3334
20	CCN1C(=O)[C@H]2[C@@H](c3ccc(C(F)(F)F)cc3)N[C@]3(CCCN(Cc4ccc(C)cc4)C3=O)[C@H]2C1=O	3788
21	OC(c1ccccc1)c1nc(-c2cccc(C(F)(F)F)c2)cs1 (stereo unspecified)	3721
22	CC(C)CC1C(=O)N(Cc2cn(Cc3ccco3)nn2)CCS(=O)(=O)N1Cc1ccc(-c2ccncc2)cc1 (stereo unspecified)	3743
23	CCCCN(C=O)c1c(CC)nc2c(OCCC3CCCCC3)cccn12	3460
24	CCC1OC(C2CC2)CC2=C1C(=O)OC(C)(C)O2 (stereo unspecified)	5441
25	COc1ccc(-c2cc3nc(C)cc(N4CCN(C(=O)c5cccnc5)CC4)n3n2)cc1	3463
26	CCCNC(=O)C1(C)CCCN(C(=O)COc2ccc(Cl)cc2Cl)C1 (stereo unspecified)	3472
27	CC(C)CC#Cc1ccc2c(c1)O[C@H](CN(C)C(=O)Cc1ccncc1)[C@H](C)CN([C@H](C)CO)S2(=O)=O	5351
28	CCn1c(SCC(=O)N2CCCC2=O)nc2ccccc21	2901
29	Cc1cc(C)cc(Cn2c3ccc(NC(=O)NCc4ccc(F)cc4)cc3c(=O)n2C)c1	4255
30	Cc1ccc(-c2cc3nc(NCCOc4ccccc4Cl)n(C)c(=O)c3s2)cc1	3755

Compounds from the list above that contain an aryl methoxy group (5):
no.	compound	Autofluor counter
3	COc1ccc(C#Cc2ccc3c(c2)O[C@H](CN(C)S(=O)(=O)c2ccccc2F)[C@H](C)CN([C@H](C)CO)S3(=O)=O)cc1	4323
8	COc1ccccc1N1CCN(c2ccc3c(c2)S(=O)(=O)c2cccc(C(=O)NCc4cccc(F)c4)c2C3=O)CC1	3870
16	COc1ccc(C(C)=O)cc1CN1C(=O)C(Cc2ccccc2)ON=C1c1ncccc1C (stereo unspecified)	5746
17	COc1ccc(-c2noc(CCC(=O)Nc3cccc(C(=O)NC4CC4)c3)n2)cc1OC	2969
25	COc1ccc(-c2cc3nc(C)cc(N4CCN(C(=O)c5cccnc5)CC4)n3n2)cc1	3463

The results go on.
no.	compound	Autofluor counter
31	CC(=O)Oc1ccccc1Cn1c(C)c(C(=O)NCc2cccc([N+](=O)[O-])c2)sc1=O	4246
32	CC(=O)Nc1ccc(-c2ccnc3c2CC(C(=O)NCc2ccccc2)O3)cc1 (stereo unspecified)	3623
33	Nc1c(OS(=O)(=O)c2ccccc2)cccc1OS(=O)(=O)c1ccccc1	3034
34	N#CC1c2ccccc2-c2ccccc2N1C(=O)c1ccccc1 (stereo unspecified)	3662
35	Cc1ccc(S(=O)(=O)N2CCC(=O)N([C@H](COCc3ccccc3)Cc3ccccc3)CC2)cc1	4444
36	CC(=O)CC1c2cc(F)ccc2C=C(c2ccsc2)N1c1ccc(-c2ccc(C(N)=O)cc2)cc1 (stereo unspecified)	5545
37	O=C(NN=Cc1cccc(O)c1O)c1ccccc1	6323
38	COc1ccccc1NC(=O)Nc1nc(C(N)Cc2ccc(C(F)(F)F)cc2)cs1 (stereo unspecified)	3987
39	CCCCCC(=O)N1C[C@@H](O)[C@H](n2cc(C3CC3)nn2)C[C@@H]1c1ccccc1	3013
40	CCc1nc2nc(C)cc(C)n2c1Nc1ccc(OC)cc1	6437
41	CCOC(=O)N(C)c1c(CC)nc2c(OCc3ccc(F)cc3)cccn12	3677
42	COc1ccc(CCN2C(=O)CCC3=C2CCCC3=O)cc1OC	6297
43	O=C1NC[C@@H](CCCCN2CCN(CCc3ccccc3)C(=O)C2=O)N(CC2CCCCC2)C1=O	5440
44	COC(=O)c1cc(=O)nc(NN=Cc2ccco2)s1	5858
45	Cn1c(=O)c2cc(NC(=S)NC3CC3)ccc2n1Cc1ccc(F)cc1	3256
46	C=CC[C@H]1C(C(=O)OCC)=CC[C@@H](c2ccccc2)N1S(=O)(=O)c1ccc(C)cc1	5759
47	CC(=O)c1sc(Nc2ccccc2)nc1C	5881
48	O=C(O)Cc1cccc2c(=O)cc(-c3ccccc3)oc12	4403
49	CC1=C(C(=O)N(C(C)C)C(C)C)CC(CC(=O)NCCCCc2ccccc2)C(=O)N1CCCN1CCCC1=O (stereo unspecified)	6232
50	COc1cccc(NC(=O)N(C)C[C@@H]2OCc3cnnn3CCCC(=O)N([C@H](C)CO)C[C@@H]2C)c1	3462
51	CC1(Oc2ccccc2-c2ccno2)CCN(Cc2csc3ccccc23)C1 (stereo unspecified)	2704
52	CC(=O)Nc1ccc(-c2ccnc3c2CC(C(=O)Nc2ccc(C(C)C)cc2)O3)cc1 (stereo unspecified)	3172
53	CC1(C)NC(=O)C(CCc2ccccc2)NC1=O (stereo unspecified)	5542
54	CNc1ncnc2c1ncn2[C@H]1CN(Cc2ccc3c(c2)OCO3)C[C@@H](CO)O1	3989
55	Cc1ccc(S(=O)(=O)N2C[C@H]3C(=O)C[C@@H](c4ccc(Cl)cc4)N(S(=O)(=O)c4ccccc4C)[C@H]3C[C@H]2c2ccccc2)cc1	3952
56	Cn1cc(Cc2ccc(C(=O)NC34CC5CC(CC(C5)C3)C4)cn2)c2ccccc21	3860
57	COc1cccc(CNC(=O)[C@@H]2CCCN2C(=O)[C@@H]2CCCN2C(=O)c2cccc3ccccc23)c1	5587
58	Cc1ccc(C(NC(=O)C2CCN(CCOc3ccc(Cl)cc3Cl)CC2)c2ccccn2)cc1 (stereo unspecified)	3686
59	Cc1c(C)c2ccc(OCC(=O)NCCc3c[nH]c4ccccc34)cc2oc1=O	5278
60	O=c1[nH]nc(Sc2ccccc2)c(=S)[nH]1	3352

Later entries.
entry	smiles	Autofluor counter
61	CC(C)C[C@@H](COCc1cccc(C(F)(F)F)c1)N1CCN(C(=O)c2ccc(C(F)(F)F)cc2)CCC1=O	5237
62	CCOC(=O)C1=CCN(S(=O)(=O)c2ccc(C)cc2)C1c1ccc(Cl)c(Cl)c1 (stereo unspecified)	6314
63	COc1ccc(/C=C2\SC(=S)N(CCC(=O)N3CCOCC3)C2=O)cc1OC	2752
64	CCN(CC)C(=O)c1csc([C@H]2C[C@H](O)[C@@H](CO)O2)n1	3549
65	CCC/C=C/c1ccc(CN2C(CC(C)C)C(=O)N(Cc3cn(Cc4ccco4)nn3)CCS2(=O)=O)cc1 (stereo unspecified)	3432
66	CCCCn1nnnc1C(C1CC1)N1CCN(C/C=C/c2ccccc2)CC1 (stereo unspecified)	4314
67	Cn1nnnc1NN=Cc1ccccc1	3065
68	CC1(C(=O)Nc2ccc(Cl)cc2)Cc2c(-c3ccc(C(N)=O)cc3)ccnc2O1 (stereo unspecified)	3758
69	CCN1CCCC1CNC(=O)c1ccc2c(c1)NC(=O)/C(=C\c1ccccc1F)S2 (stereo unspecified)	3633
70	CCc1ccc(N(CC(=O)N2CCCC2)S(C)(=O)=O)cc1	3051
71	O=C(NCc1cccs1)c1ccc(-c2ccc(F)c(F)c2)c2ccoc12	3044
72	CCC(C)C(NC(=O)C(Cc1ccc(O)cc1)NC(=O)OCc1ccccc1)C(=O)OC (stereo unspecified)	5604
73	CCNC(=O)C1(C)CCN(Cc2noc(-c3c(C)noc3C)n2)C1 (stereo unspecified)	2860
74	Clc1ccccc1CNCCc1c[nH]c2ccccc12	3764
75	CCCCNC(=O)C1(C)CCCCN1C(=O)c1cc(C)n(C(C)(C)C)n1 (stereo unspecified)	3432
76	COc1ccccc1NC(=O)Nc1nc(C(N)Cc2ccccc2)cs1 (stereo unspecified)	2903
77	CCCNC(=O)C1CC(=O)N(c2ccc(OCc3ccccc3)cc2)C1 (stereo unspecified)	3426
78	CCCCN(C(=O)CC1CCCC1)c1c(N)n(Cc2ccccc2)c(=O)[nH]c1=O	3853
79	Cc1ccc(NC(=O)C(C)N2CCCc3ccccc32)cc1S(=O)(=O)N1CCOCC1 (stereo unspecified)	3832
80	COc1ccc(CN(C)CCCn2ccc(N)nc2=O)cc1OC	3867
81	FC(F)(F)c1cnc(NNC(=S)Nc2ccccc2)c(Cl)c1	3546
82	NCCCNC(=S)NCCCN(Cc1ccc(Cl)cc1)c1ccc(Br)cn1	3815
83	CN(C)c1cccc2c(S(=O)(=O)NC(=O)[C@H]3O[C@@H](n4cnc5c(N)ncnc54)[C@H](O)[C@@H]3O)cccc12	6132
84	O=C(OCc1ccccc1)N1CCCC2CC1c1ccccc12 (stereo unspecified)	4138
85	CC1(C(=O)Nc2ccccc2)CCN1C(=O)C1(c2ccccc2)CC1 (stereo unspecified)	3875

Of the compounds above, 2 have a COOH group.
entry	smiles	Autofluor counter
10	O=C(O)C1C2CCC1C(O)C2 (stereo unspecified)	2853
48	O=C(O)Cc1cccc2c(=O)cc(-c3ccccc3)oc12	4403

Next section
entry	smiles	Autofluor counter
86	COC(=O)[C@H]1C[C@@]2(O)CN(S(=O)(=O)c3ccc(C)cc3)C[C@@]2(OC(=O)NCc2ccco2)C[C@H]1C(=O)OC	3781
87	Cc1ccc(-c2nc(NCCCN(C)C)c3ccccc3n2)cc1	4020
88	CC1(C(=O)NS(=O)(=O)C2CC2)CCN(C(=O)c2cccc(OC(F)(F)F)c2)C1 (stereo unspecified)	3622
89	COc1cccc(-c2cc(NC(C)=O)c3ncc(-c4cccc(C(C)=O)c4)n3c2)c1	3561
90	CC12CCC(CC1O)C2C(=O)O (stereo unspecified)	3760
91	CC(C)NC(=O)C1Cc2c(-c3ccc4c(c3)OCO4)ccnc2O1 (stereo unspecified)	4683
92	COc1cc(Nc2ccn3nccc3n2)cc(OC)c1OC	3742
93	CCNC(=O)C1CCCN(C(=O)c2cccc(OC(F)(F)F)c2)CC1 (stereo unspecified)	3824
94	COc1ccccc1-c1csc(C(C)(O)c2ccccc2)n1 (stereo unspecified)	3461
95	CC(=O)c1cccc(-c2ccnc3c2CC(C(=O)Nc2ccc(C(C)C)cc2)O3)c1 (stereo unspecified)	2920
96	O=C(O)CC1(C(=O)O)CC2C=CC1C2 (stereo unspecified)	3824
97	COc1ccc(NC(=O)Nc2nc(C(N)C3CCCCC3)cs2)cc1 (stereo unspecified)	3968
98	Cc1cccc(COC[C@H](Cc2ccccc2)N2CCN(C(=O)c3cccc(C)c3)CCC2=O)c1	5639
99	CC(C)C[C@@H](CN1CCCC1CN1C(=S)NC[C@@H]1Cc1ccccc1)N1C[C@H](Cc2ccccc2)N(CC2CCCCCC2)C1=S (stereo partly specified)	6226
100	COc1ccc(OC(=O)N(C)C[C@H]2OCc3cnnn3CCCC(=O)N([C@H](C)CO)C[C@H]2C)cc1	3699
101	CC(Oc1ccc(F)cc1)C(=O)Nc1cccc(S(=O)(=O)N(C)c2ccccc2)c1 (stereo unspecified)	3866
102	C[C@@H]1CN([C@@H](C)CO)C(=O)CCCn2nncc2CO[C@H]1CN(C)S(=O)(=O)c1cn(C)cn1	3862
103	CCCCCCN1C[C@@H](n2cc(C3CC3)nn2)[C@H](O)C[C@@H]1c1ccc(OC)cc1	3489
104	CCOC(=O)[C@]12Cc3c(cc(OC)c(OC)c3OC)[C@H]1N(C1CCCCC1)C(=O)c1cc(OC)ccc12	6485
105	CN(C)CCCNC(=O)c1cccc(-c2ccc3nccn3c2)c1	3818
106	CC(C)(C)c1ccc(S(=O)(=O)NC(=O)C2(C)CCN2C(=O)CC2CCCC2)cc1 (stereo unspecified)	3801
107	Cc1sc(N=Nc2ccc(N(C)C)cc2)[n+]([O-])c1C	3964

Exported field by field: entries from further up.
97. COc1ccc(NC(=O)Nc2nc(C(N)C3CCCCC3)cs2)cc1 (stereo unspecified)
  Autofluor counter: 3968

98. Cc1cccc(COC[C@H](Cc2ccccc2)N2CCN(C(=O)c3cccc(C)c3)CCC2=O)c1
  Autofluor counter: 5639

99. CC(C)C[C@@H](CN1CCCC1CN1C(=S)NC[C@@H]1Cc1ccccc1)N1C[C@H](Cc2ccccc2)N(CC2CCCCCC2)C1=S (stereo partly specified)
  Autofluor counter: 6226

100. COc1ccc(OC(=O)N(C)C[C@H]2OCc3cnnn3CCCC(=O)N([C@H](C)CO)C[C@H]2C)cc1
  Autofluor counter: 3699
